NOMO-1 viab: NOMO-1 AML cell viability reduction, primary screen, STK33 inhibitor project, CellTiter-Glo luminescence; NOMO-1 AML viability, 72 h; 37,000 compounds, 7.5% hits; AID 2330, 2010; inhibition, % (test concentration not listed);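 active = most replicates above 80%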;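 also: wells of about 30 µL received 25 nL stock; 0% = median of vehicle wells and 100% = reference inhibitor level; the first replicate is given; inactives centre near 10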
An asterisk follows results filed as active. These rows are one share of the data; the hit share may differ from the screen's.

SMILES	NOMO-1 viab
C[C@H]1CN([C@@H](C)CO)C(=O)Cc2cc(NC(=O)CCCCCC(=O)Nc3ccccc3N)ccc2O[C@@H]1CN(C)Cc1ccc(Oc2ccccc2)cc1	122*
Cc1noc(C)c1NC(=O)Nc1cccc2c1O[C@H](CN(C)S(=O)(=O)c1cn(C)cn1)[C@H](C)CN([C@@H](C)CO)C2=O	-16
Cc1cc(O)c(C=O)c(O)c1C(=O)O	12
COc1ccc(-c2nnc(SCC(=O)O)n2-c2cccc(C(F)(F)F)c2)cc1OC	3
CCOC(=O)c1c(-c2ccc(C)cc2)csc1NC(=O)c1cccc(OC(C)=O)c1	26
NC(=O)CN(c1ccccc1)S(=O)(=O)c1ccc(F)cc1	-14
COc1cccc(NC(=O)CSc2nncn2C)c1	17
Cc1ccc(S(=O)(=O)N(C)C[C@@H]2Oc3c(NC(=O)Nc4c(C)noc4C)cccc3C(=O)N([C@@H](C)CO)C[C@@H]2C)cc1	23
C[C@@H]1CN([C@H](C)CO)C(=O)c2cccc(NC(=O)c3ccncc3)c2O[C@H]1CN(C)C(=O)Nc1ccc(F)cc1	-8
C[C@@H]1CN([C@@H](C)CO)C(=O)c2cccc(NS(C)(=O)=O)c2O[C@H]1CN(C)S(=O)(=O)c1ccc(Cl)cc1	-2
N#Cc1c(NC(=O)c2cc3nc(-c4ccco4)cc(C(F)(F)F)n3n2)sc2c1CCC2	19
CNC[C@@H]1OCCCC[C@@H](C)Oc2ccc(NC(=O)Cc3ccccc3)cc2C(=O)N([C@H](C)CO)C[C@@H]1C	1
COCCCNC(=O)C(=O)c1cn(C)c2ccccc12	13
CC(C)NC(=O)Nc1cccc2c1O[C@H](CN(C)S(=O)(=O)c1cn(C)cn1)[C@@H](C)CN([C@H](C)CO)C2=O	15
O=C(Nc1ncnc2sc3c(c12)CCCCC3)c1ccc(F)cc1	109*
Cn1nc(OC(C)(C)C(=O)Oc2ccc(Cl)cc2Cl)cc1C(F)(F)F	33
Cc1ccc(C)c(NC(=O)CSc2nnc(-c3ccncc3)n2-c2ccc(F)cc2)c1	0
COc1ccc(CN(C)C[C@H]2Oc3ccc(NS(=O)(=O)c4cccs4)cc3C(=O)N([C@H](C)CO)C[C@@H]2C)cc1	45
NC(=O)CSc1nc2sc3c(c2c(=O)n1Cc1ccccc1)CCCC3	19
Cc1ccc(S(=O)(=O)Nc2ccc3c(c2)CC(=O)N([C@@H](C)CO)C[C@H](C)[C@H](CN(C)S(=O)(=O)c2cn(C)cn2)O3)cc1	-5
Cc1ccc(NC(=O)C2CC(Cl)=CCC2C(=O)O)c(Br)c1 (stereo unspecified)	5
O=C(O)c1cc(=O)[nH]c2c(Cl)cccc12	35
O=C(COc1ccc([N+](=O)[O-])cc1)Nc1ccccc1N1CCN(C(=O)c2ccc(Cl)cc2)CC1	35
COc1c(S(=O)(=O)N2CCCN(S(=O)(=O)c3ccc(Cl)c(Cl)c3OC)CC2)ccc(Cl)c1Cl	12
COC(=O)c1ccc(NC(=O)CN(c2ccc(Br)c(C)c2)S(C)(=O)=O)cc1	11
c1ccc(-c2nn3c(Cn4cnc5ccccc54)nnc3s2)cc1	16
CC(=O)NC1=NC(=O)/C(=C\c2cccs2)N1C	31
COc1ccc(NC(=O)N(C)C[C@H]2Oc3ccc(NC(=O)CCC(F)(F)F)cc3C(=O)N([C@@H](C)CO)C[C@H]2C)cc1	-1
C[C@@H]1CN([C@@H](C)CO)C(=O)c2cc(NC(=O)C3CCCCC3)ccc2O[C@@H]1CN(C)Cc1ccc(Cl)c(Cl)c1	60
O=[n+]1cc(-c2ccccc2)n([O-])c2c1CCCC2	-26
COc1ccc(-c2nnn(CC(=O)Nc3ccc(OC)cc3OC)n2)cc1	9
Cc1nc(SCC(=O)Nc2ccc(Cl)cc2)c2ccsc2n1	-1
C[C@@H]1CN([C@H](C)CO)C(=O)c2cc(NC(=O)CCCN(C)C)ccc2O[C@H]1CN(C)C(=O)Nc1cccc2ccccc12	-8
CC(Oc1ccc(F)cc1)C(=O)Nc1sc2c(c1C(N)=O)CCCC2 (stereo unspecified)	89*
Cc1noc(C)c1NC(=O)Nc1ccc2c(c1)C(=O)N([C@H](C)CO)C[C@@H](C)[C@@H](CN(C)Cc1ccncc1)O2	11
COc1ccc(S(=O)(=O)N(C)CC(=O)Nc2ccccc2SC)cc1C	-18
CN1C(=O)c2ccc(NC(=O)Cn3c(=O)oc4ccccc43)cc2C1=O	25
Cc1ccc(S(=O)(=O)Nc2cccc3c2O[C@H](CN(C)S(=O)(=O)c2ccc(Cl)cc2)[C@H](C)CN([C@H](C)CO)C3=O)cc1	36
C[C@H]1CN([C@@H](C)CO)C(=O)c2cc(N(C)C)ccc2O[C@@H]1CN(C)Cc1ccc(C(=O)Nc2ccccc2N)cc1	112*
C[C@@H]1CN([C@H](C)CO)C(=O)c2cccc(NS(=O)(=O)c3cn(C)cn3)c2O[C@H]1CN(C)C(=O)Nc1ccc(F)cc1	-10
C[C@@H]1CN([C@@H](C)CO)C(=O)c2cc(NC(=O)CCN3CCOCC3)ccc2O[C@@H]1CN(C)S(=O)(=O)c1cccs1	2
Cc1ccc(NC(=O)CSc2nc(-c3ccccc3)c(-c3ccccc3)[nH]2)c(C)c1	2
CC1=CC(O)C2/C=C/CCC3OC3(C)C(O)CC(=O)C23C(=O)NC(CC(C)C)C13 (stereo unspecified)	55
Cc1cc(C)cc(NC(=O)CSc2nnc(-c3ccncc3)n2C)c1	-6
CC(C)NC(=O)N(C)C[C@H]1Oc2c(NC(=O)Nc3cccc4ccccc34)cccc2C(=O)N([C@H](C)CO)C[C@H]1C	7
C[C@@H]1CN([C@@H](C)CO)C(=O)Cc2cc(NC(=O)Nc3ccc(F)cc3)ccc2O[C@@H]1CN(C)S(=O)(=O)c1ccccc1	21
Cc1ccc(S(=O)(=O)N(C)C[C@H]2Oc3ccc(NC(=O)Nc4ccc5c(c4)OCO5)cc3C(=O)N([C@H](C)CO)C[C@H]2C)cc1	63
CC(C)NC(=O)N(C)C[C@@H]1Oc2ccc(NC(=O)Nc3ccc4c(c3)OCO4)cc2C(=O)N([C@H](C)CO)C[C@H]1C	-2
Cc1cc2c(c(=O)n1Cc1ccccn1)C(c1ccccc1)C(C#N)=C(N)O2 (stereo unspecified)	18
C[C@@H]1CN([C@@H](C)CO)C(=O)c2cccc(NC(=O)Nc3ccc(F)cc3)c2O[C@@H]1CN(C)Cc1ccc(C(=O)Nc2ccccc2N)cc1	140*
O=C(Cn1c2ccccc2n2nc(-c3ccccc3)nc12)c1cccs1	8
C[C@H](CO)N1C[C@H](C)[C@H](CN(C)S(=O)(=O)c2ccc(Cl)cc2)Oc2ccc(NC(=O)c3ccncc3)cc2C1=O	40
C[C@H]1CN([C@@H](C)CO)C(=O)c2cccc(NC(=O)c3cnccn3)c2O[C@H]1CN(C)Cc1ccc(C(F)(F)F)cc1	2
Cc1ccc(NS(=O)(=O)c2ccc(NS(=O)(=O)c3ccc4c(c3)OCCO4)cc2)c(C)c1	5
COc1ccc(OC)c(NC(=O)CSc2nc3sc4c(c3c(=O)n2-c2ccccc2)CCCC4)c1	55
CCNC(=O)c1c(NC(=O)c2ccccc2[N+](=O)[O-])sc2c1CCCC2	5
CCN(C(=O)c1cccc(C(=O)N(CC)c2ccccc2)c1)c1ccccc1	20
N#Cc1c(-c2cccs2)nc(SCC(=O)c2ccc(Br)cc2)[nH]c1=O	9
C[C@@H]1CN([C@@H](C)CO)C(=O)c2cc(NC(=O)C3CCCCC3)ccc2O[C@H]1CN(C)C	34
Cc1ccc(NC(=O)CSc2nc(N)c(-c3ccccc3)c(=O)[nH]2)cc1Cl	22

Reformatted with bars between the fields: part of the list above.
molecule | NOMO-1 viab
C[C@H]1CN([C@@H](C)CO)C(=O)Cc2cc(NC(=O)CCCCCC(=O)Nc3ccccc3N)ccc2O[C@@H]1CN(C)Cc1ccc(Oc2ccccc2)cc1 | 122*
Cc1noc(C)c1NC(=O)Nc1cccc2c1O[C@H](CN(C)S(=O)(=O)c1cn(C)cn1)[C@H](C)CN([C@@H](C)CO)C2=O | -16
Cc1cc(O)c(C=O)c(O)c1C(=O)O | 12
COc1ccc(-c2nnc(SCC(=O)O)n2-c2cccc(C(F)(F)F)c2)cc1OC | 3
CCOC(=O)c1c(-c2ccc(C)cc2)csc1NC(=O)c1cccc(OC(C)=O)c1 | 26
NC(=O)CN(c1ccccc1)S(=O)(=O)c1ccc(F)cc1 | -14
COc1cccc(NC(=O)CSc2nncn2C)c1 | 17
Cc1ccc(S(=O)(=O)N(C)C[C@@H]2Oc3c(NC(=O)Nc4c(C)noc4C)cccc3C(=O)N([C@@H](C)CO)C[C@@H]2C)cc1 | 23
C[C@@H]1CN([C@H](C)CO)C(=O)c2cccc(NC(=O)c3ccncc3)c2O[C@H]1CN(C)C(=O)Nc1ccc(F)cc1 | -8
C[C@@H]1CN([C@@H](C)CO)C(=O)c2cccc(NS(C)(=O)=O)c2O[C@H]1CN(C)S(=O)(=O)c1ccc(Cl)cc1 | -2
N#Cc1c(NC(=O)c2cc3nc(-c4ccco4)cc(C(F)(F)F)n3n2)sc2c1CCC2 | 19
CNC[C@@H]1OCCCC[C@@H](C)Oc2ccc(NC(=O)Cc3ccccc3)cc2C(=O)N([C@H](C)CO)C[C@@H]1C | 1
COCCCNC(=O)C(=O)c1cn(C)c2ccccc12 | 13
CC(C)NC(=O)Nc1cccc2c1O[C@H](CN(C)S(=O)(=O)c1cn(C)cn1)[C@@H](C)CN([C@H](C)CO)C2=O | 15

Further results follow.
SMILES	NOMO-1 viab
COc1ccc(NC(=O)COc2ccc([N+](=O)[O-])cc2)cc1OC	16
CC(C)NC(=O)Nc1cccc2c1O[C@H](CN(C)Cc1ccc(Oc3ccccc3)cc1)[C@H](C)CN([C@H](C)CO)C2=O	-7
CCCc1nnc(NC(=O)c2nc(SC)ncc2Cl)s1	-3
O=c1[nH]c2ccc(S(=O)(=O)NCc3ccco3)cc2[nH]1	51
C[C@@H]1CN([C@@H](C)CO)C(=O)c2cccc(NC(=O)c3cnccn3)c2O[C@H]1CN(C)C(=O)Nc1ccc2c(c1)OCO2	1
CCOC(=O)c1c(NC(=O)CN2C(=O)c3cccc4cccc(c34)C2=O)sc2c1CCC2	10
Cc1csc2sc(C(=O)c3ccc(Cl)cc3)c(C)c12	50
Cc1ccc(S(=O)(=O)N2C(=O)CCC2C(=O)Nc2cccc(Br)c2)cc1 (stereo unspecified)	-20
C[C@@H]1CCCCO[C@H](CN(C)Cc2ccccc2)[C@@H](C)CN([C@H](C)CO)C(=O)c2cc(NC(=O)Nc3ccccc3)ccc2O1	33
C[C@@H]1CCCCO[C@@H](CN(C)S(=O)(=O)c2ccccc2)[C@@H](C)CN([C@H](C)CO)C(=O)c2cc(NS(=O)(=O)c3ccccc3)ccc2O1	53
O=C(OCc1ccc2nonc2c1)c1cc(-c2ccccc2)nc2ccccc12	11
C[C@@H]1CN([C@H](C)CO)C(=O)c2cccc(NC(=O)c3cnccn3)c2O[C@@H]1CN(C)S(=O)(=O)c1ccc(Cl)cc1	3
CC(=O)NCCOc1nc(N2CCCCC2)nc(N2CCOCC2)n1	-9
Cc1ccccc1OCC(=O)Nc1ccc(O)cc1C(=O)O	19
CC(C)NC(=O)N(C)C[C@H]1Oc2ccc(NC(=O)NC3CCCCC3)cc2CC(=O)N([C@@H](C)CO)C[C@@H]1C	15
COc1ccc(CN(C)C[C@H]2Oc3c(NC(=O)Nc4ccc(OC)cc4)cccc3C(=O)N([C@@H](C)CO)C[C@@H]2C)cc1	45
CCOC(=O)c1c(NC(=O)c2nn(CC)cc2Br)c(C#N)nn1-c1ccccc1	9
C[C@H]1CN([C@@H](C)CO)C(=O)c2cc(NC(=O)CCC(F)(F)F)ccc2O[C@H]1CN(C)Cc1ccc(C(F)(F)F)cc1	32
COc1ccc(OC)c(NC(=O)CNC(=O)c2ccc(Cl)cc2)c1	33
C[C@@H]1CN([C@@H](C)CO)C(=O)c2cc(NS(C)(=O)=O)ccc2O[C@@H]1CN(C)CC1CCCCC1	11
C[C@H]1CN([C@@H](C)CO)C(=O)c2cc(NC(=O)CCCN(C)C)ccc2O[C@H]1CN(C)C(=O)Nc1cccc2ccccc12	-7
O=C(CCCCc1ccc(O)cc1)CCc1ccc(O)cc1	104*
CS(=O)(=O)N(CC(=O)Nc1ccc(F)c(Cl)c1)c1ccc2c(c1)OCCO2	14
CC(=O)c1cccc(NC(=O)CSc2nc3ccc([N+](=O)[O-])cc3s2)c1	42
CC(C)OC(=O)CSc1nc2c(cc1C#N)CCCCC2	-4
Cc1noc(C)c1S(=O)(=O)Nc1ccc2c(c1)CC(=O)N([C@@H](C)CO)C[C@H](C)[C@@H](CN(C)C(=O)Nc1ccccc1)O2	23
C[C@@H]1CN([C@H](C)CO)C(=O)c2cc(NS(=O)(=O)c3ccc(Cl)cc3)ccc2O[C@@H]1CN(C)CC1CC1	4
C[C@H](CO)N1C[C@H](C)[C@@H](CN(C)CC2CC2)Oc2c(NC(=O)Nc3ccc(F)cc3)cccc2C1=O	34
COc1ccccc1OCc1nc(-c2ccccc2)cs1	33
Cc1cc(=O)c2c(O)cc(O)c(C)c2o1	3
O=C(NCCCN1CCOCC1)C1CC(c2ccc(Cl)c(Cl)c2)=NO1 (stereo unspecified)	-1
N#CCCN(CC1COc2ccccc2O1)C(=O)c1ccccc1 (stereo unspecified)	27
COc1ccc(NC(=O)COc2ccc(C(C)C)cc2Br)c([N+](=O)[O-])c1	-2
Cn1c(Cn2cc(C(F)(F)F)ccc2=O)n[nH]c1=S	11
C[C@@H]1CN([C@H](C)CO)C(=O)c2cccc(N(C)C)c2O[C@H]1CN(C)Cc1ccc(C(F)(F)F)cc1	81*
COC(=O)c1cc(OC)c(OC)cc1NC(=O)C(C)Oc1ccccc1C (stereo unspecified)	1
C[C@H](CO)N1C[C@H](C)[C@H](CN(C)C(=O)Nc2ccc(F)cc2)Oc2ccc(NS(=O)(=O)c3cccs3)cc2C1=O	12
Cc1cc(C(=O)Nc2cccc3c2O[C@@H](CN(C)CC2CCCCC2)[C@@H](C)CN([C@H](C)CO)C3=O)n(C)n1	22
Cc1noc(C)c1NC(=O)Nc1cccc2c1O[C@H](CN(C)CC1CCCCC1)[C@@H](C)CN([C@@H](C)CO)C2=O	10
C[C@@H]1CCCCO[C@@H](CN(C)Cc2ccc(C(=O)O)cc2)[C@@H](C)CN([C@H](C)CO)C(=O)c2cc(NC(=O)Nc3ccc4c(c3)OCO4)ccc2O1	-4

Source: PubChem (Broad Institute)
